Bioassay records as filed in PubChem.
Tg IFNy HTS: T. gondii growth inhibition under IFN-gamma; Toxoplasma gondii growth in IFN-gamma-treated host cells; active compounds read low; reference of the scale not given here; 3.8% of 69,000 active; activity change, negative = inhibition, %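 (about 20 µM by stock and volumes)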; AID 1259416;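 active = below -70%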;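 note: host cells are HeLa cells infected with Toxoplasma gondii; parasite growth read as luciferase light; one replicate is shown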
* hit, by the source's call; i = inactive; & = joins results of further samples; ! = repeats disagree. The list is partial. The share of hits here may be higher or lower than overall.

smiles	Tg IFNy HTS
CCOC(=O)c1nnn(Cc2ccccc2Cl)c1N	15.1
COc1cccc(-c2nc(C)c(-c3ccc(SCc4ccc(Cl)cc4Cl)nn3)s2)c1	1.8
CC(CCC(=O)NCC(=O)O)C1CCC2C3C(O)CC4CC(O)CCC4(C)C3CCC12C (stereo not given)	4.5
O=C(C[C@@H]1CC[C@H]2NC[C@@H](O)COC[C@@H]2O1)NCCc1ccncc1	-31.3
CCOC(=O)c1c(NC(=O)c2cccs2)nc(SC)n1Cc1cccs1	-17.7
CCCN1[C@@H]2c3ccc(-c4cccc(OC)c4)c(=O)n3C[C@@H]2[C@@H](CO)[C@@H]1C(=O)OC	1.0
Cc1nnc(CN(C)C(=O)CC2COc3ccc(C(=O)N(C)C)cc3N2C)o1 (stereo not given)	1.3
CN(Cc1cnc(-c2ccco2)nc1)Cc1cnn(-c2ccc(F)cc2)c1	-3.8
CCN(C[C@@H]1[C@@H](c2ccc(-c3cccnc3)cc2)[C@H](CO)N1C(C)=O)C(C)=O	10.7
CC(C)CNC(=O)c1ccc2c(c1)C(c1ncn(C(C)C)n1)CN2C(=O)c1ccccc1 (stereo not given)	-46.3

A few values from the entries so far.
Entry for CC(CCC(=O)NCC(=O)O)C1CCC2C3C(O)CC4CC(O)CCC4(C)C3CCC12C (stereo not given) under Tg IFNy HTS: 4.5
Entry for Cc1nnc(CN(C)C(=O)CC2COc3ccc(C(=O)N(C)C)cc3N2C)o1 (stereo not given) under Tg IFNy HTS: 1.3
Entry for CCCN1[C@@H]2c3ccc(-c4cccc(OC)c4)c(=O)n3C[C@@H]2[C@@H](CO)[C@@H]1C(=O)OC under Tg IFNy HTS: 1.0

Remaining list, next part:
smiles	Tg IFNy HTS
Cc1cnc(NCC(c2ccccn2)N(C)C)nc1N(C)C (stereo not given)	24.3
O=C(NCc1ccc(N2CCOCC2)cc1)c1cn2c(n1)CSCC2	70.8
CN1C(=O)CCC12CCCN(S(=O)(=O)c1cccs1)CC2 (stereo not given)	-23.4
Cc1ccccc1-c1ccc(C2[C@H]3CNC[C@@H]2N3S(=O)(=O)c2ccccc2)cc1 (stereo not given in full)	0.4&10.3
O=C1CCCC2(CCCN(c3cccnc3)C2)N1 (stereo not given)	30.4
CC(C)=CCC[C@](C)(O)[C@H]1CC[C@]2(C)[C@@H]1[C@H](O)C[C@@H]1[C@@]3(C)CC[C@H](O)C(C)(C)[C@@H]3[C@@H](O)C[C@]12C	4.4
NC1(C(=O)O)CCN(Cc2ccc3c(c2)OCCO3)C1 (stereo not given)	-1.2
COc1ccc(-c2nc(N3CCN(c4cccc(C)c4C)CC3)c3ccccc3n2)cc1	21.3
O=C(NC1CCCCC1)c1cc(C2CCCN(S(=O)(=O)c3ccccc3)C2)no1 (stereo not given)	-23.7
C[C@H](NC(=O)[C@@H]1[C@@H](CO)[C@@H]2Cn3c(ccc(-c4ccccc4F)c3=O)[C@H]1N2)c1ccccc1	-14.0
Cc1nc(N2CCOCC2)nc2c1COCC21CCN(CC2CC2)C1 (stereo not given)	2.4
Cc1cnc(C(=O)NC2CCC3(CCC(=O)N3C)CC2)cn1 (stereo not given)	-1.3
COc1ccc(CC(=O)N2CCC(c3nc(C(=O)N(C)C)c(C)o3)CC2)c(Cl)c1	-24.2
CN(C)S(=O)(=O)c1ccc2c(c1)CCN2Cc1ccnc(N2CCOCC2)n1	-34.4
CC(=O)NCCn1cnc(-c2ccccc2)c1CCn1cccn1	-0.5
O=C(O)C1=C(CSc2nnnn2CS(=O)(=O)O)CS[C@@H]2[C@H](NC(=O)[C@H](O)c3ccccc3)C(=O)N12	17.1
CN(C)c1nc(N)c(C(=O)Nc2cccnc2)nc1Cl	175.1
CCC(C)N(Cc1cccnc1)C(=O)CCN(C)S(C)(=O)=O (stereo not given)	-0.1
COc1ccc(CNC(Cc2cccs2)c2nc(C)cs2)cc1Cn1cccn1 (stereo not given)	39.5
O=S1(=O)[C@@H]2CCN(c3ncc(F)cn3)CC[C@H]2CN1Cc1cccnc1	3.9
CN(C)C(=O)c1ccc(-c2ccc([C@@H]3[C@H](C#N)N(C(=O)C4CC4)[C@H]3CO)cc2)cc1	6.2
Cc1cc(C)n(Cc2nc(-c3ccc(NC(=O)c4ccc(F)cc4F)cc3)oc2C)n1	-84.8*
Cn1cnc(CCNC(=O)C[C@@H]2CC[C@@H]3[C@H](COC[C@@H](O)CN3C(=O)Nc3ccc(C(F)(F)F)cc3)O2)c1	19.0
CCCN1CC(NC(=O)CCc2ccccc2C)CC1=O (stereo not given)	-33.0
Cc1cc(NC(=O)CC(C)n2nc(C)c(Cl)c2C)n(Cc2ccncc2)n1 (stereo not given)	7.7
CC(=O)Nc1ccc(Cl)c(C(=O)N(C)C2Cc3ccccc3C2)c1	8.7
CCOc1ccc(S(=O)(=O)NCCc2csc(-c3cccc(F)c3)n2)cc1	2.7
c1ccc2oc(N3CCN(Cc4nc(-c5ccc6c(c5)OCO6)no4)CC3)nc2c1	1.4
CSC1=NC(=Nc2c(C)cccc2C)C2(CCCCC2)N1c1cccc(C)c1	-57.1
CCN1CCN(c2ncc(-c3ccsc3)c(-c3cccnc3)n2)CC1	5.3
Cc1ccsc1CN(CCCO)Cc1ccc(F)c(F)c1	21.2
COc1ccc(-c2cn(CC[C@H]3CC[C@@H](NC(=O)c4cnccn4)[C@H](CO)O3)nn2)cc1	-2.8
Cc1nc(C)c(CC(=O)N2CCn3cncc3C2)c(=O)[nH]1	15.8
c1ccc2c(-n3cnnc3C3CCC3)cccc2c1	-1.5
COc1ccc(C2C3=C(OC(C)=O)c4ccccc4C3=Nc3c2c(=O)n(C)c(=O)n3C)cc1 (stereo not given)	-23.7&-57.6
CCCCCCCCCCCC[C@H](C(=O)O)[C@@H](C)C(=O)O	10.9
Cc1c(C2CCN(CCc3ccccc3)CC2)noc1-c1ccc(Cl)cc1	-76.4*!
CC(C)(CC(=O)O)CC(=O)NC1CCCCNC1=O (stereo not given)	28.2
CC(C)C(=O)Nc1cccnc1	-3.9
CN(Cc1ccc2ncccc2c1)C(=O)[C@@H]1C[C@H](N)CN1C	-0.5

Shown field by field: part of the list above.
CC(CCC(=O)NCC(=O)O)C1CCC2C3C(O)CC4CC(O)CCC4(C)C3CCC12C (stereo not given)
  Tg IFNy HTS = 4.5

CCCN1CC(NC(=O)CCc2ccccc2C)CC1=O (stereo not given)
  Tg IFNy HTS = -33.0

New compounds follow:
SMILES,Tg IFNy HTS
Cc1[nH]c2ccccc2c1CC(=O)N1CCCC2(CNC(=O)O2)C1 (stereo not given),-1.6
CC(=O)N1CC(=O)N(c2ccccc2)CC12CCN(Cc1nccs1)C2 (stereo not given),3.4
c1ccc(-c2cc(Cn3cnnc3)[nH]n2)cc1,-46.5
CCOC(=O)c1c(NC(=O)c2ccc(OC)c(OC)c2)sc2c1CC(C)(C)OC2,-51.4
COc1cccc2cc(C(=O)N3CCCC(c4nc5ccccc5n4C)C3)c(C)nc12 (stereo not given),-4.4
CN1CCC(Cn2cnc(-c3ccccc3)c2-c2cn[nH]c2-c2ccccc2)C1 (stereo not given),-52.7
O=C1CCC2(CCC(NC(=O)c3cscn3)CC2)N1 (stereo not given),-2.5
CN1C[C@@H]2CN(C(=O)CO)C[C@@H]2c2ccccc21,23.7
CCn1c(C2CCN(Cc3cnn4c(C)cc(C)nc34)CC2)nn(C)c1=O,6.2
Cc1c(C(=O)CSc2n[nH]c(=O)n2-c2cccnc2)sc2ccc(Cl)cc12,97.7
O=C(O)CCCNc1ccc(S(=O)(=O)Nc2ccccc2C(=O)O)cc1C(=O)O,-4.1
CC(C)c1cc(C2CCCN2C(=O)Cn2nc(C(F)(F)F)c3c2CCCC3)no1 (stereo not given),-0.9
CSc1ccc(C2c3[nH]c4ccccc4c3CCN2C(=O)CCC2CCCC2)cc1 (stereo not given),-121.5*
CSc1cc(-c2ccc(Cl)cc2)nc(-c2cccs2)c1,-10.6
COc1ccc([C@H]2C3CCCCC3[C@@H]2NC(=O)CC2CCCO2)cc1 (stereo not given in full),26.9
COCC(=O)N1C[C@H]2CNC[C@@]2(C(=O)N2CCC(Cn3cccn3)CC2)C1,-51.8
CC(C)N(C(=O)CSc1nnc(CSc2ncccn2)n1C)C(C)C,-5.7
Cc1cccc(OC(C)(C)C(=O)N2CCCC(c3ccn[nH]3)C2)c1C (stereo not given),7.6
O=C(NC1CC(=O)N(c2ccc(F)cc2)C1)c1cc(COc2ccccc2F)on1 (stereo not given),-6.4
CCOC(=O)CCNC(=O)N1CCCCC1c1cccc(OC)c1 (stereo not given),6.9
COc1ccc(S(=O)(=O)N(C)C[C@H]2Oc3ccc(NC(=O)Cc4cn(C)c5ccccc45)cc3C(=O)N([C@H](C)CO)C[C@@H]2C)cc1,-55.9
Cc1cccc(CN2C[C@@H]3CN(C(=O)C4CCOC4)C[C@H]3C2=O)c1 (stereo not given in full),1.1
Nc1ncnc2c1c(-c1cnc3[nH]ccc3c1)nn2C1CCCC1,-77.5*
Cc1nccn1C(C)C(=O)NCc1cccnc1Oc1ccc(F)c(F)c1 (stereo not given),-7.1
C[C@@H]1CN([C@@H](C)CO)C(=O)c2cccc(NC(=O)c3cnccn3)c2O[C@H]1CN(C)C(=O)NC1CCCCC1,-30.8
CC1CCCCN1CCNC(=O)c1nc(-c2ccc(Cl)cc2)n2c1CCCCC2 (stereo not given),6.3
C=CCN(C(=O)c1ccccc1Cl)c1ccccc1C(=O)NCC(=O)OCC,53.8
Cc1ccc(-c2nnc(-c3nc(NCCc4c(C)noc4C)c4ccccc4n3)o2)cc1,-14.3
COc1ccc2c3c([nH]c2c1)[C@H](CO)N(C(=O)Nc1c(C)noc1C)CC31CN(CC2CCOCC2)C1,-1.5
CC(=O)c1[nH]c(C)c(C(=O)N2CCc3nc(C)n(C)c(=O)c3CC2)c1C,-4.7
CC1=C(C(=O)NCc2ccccc2C)C2(CCN(S(=O)(=O)c3cccs3)CC2)OC1=O,1.4
COc1cc(NS(=O)(=O)c2c(C)oc3c(F)c(F)c(F)c(F)c23)cc(OC)c1OC,15.9
O=C(c1ccccc1Cn1cccn1)N1CCN(c2nc3ccccc3s2)CC1,-56.7
CC1COC2(CCN(c3nc(=O)c4cc(C(F)(F)F)cc([N+](=O)[O-])c4s3)CC2)O1 (stereo not given),430.6
CN(C)Cc1ccc(C2CCCCN2C(=O)c2cn(-c3ccccc3)nn2)cc1 (stereo not given),-43.3
CCn1nc(C)c(CN2CCCCC2c2ccccn2)c1C (stereo not given),56.4
Cc1nc(-c2cccc(-c3noc(C(=O)NCCCN4CCC(C)CC4)n3)c2)cs1,3.1
O=C(NCCc1csc(-c2ccccc2)n1)[C@H]1CCCN1C(=O)CCc1ccccc1,7.9
CC(C)c1nnc(NC(=O)CC(NC(=O)c2ccccc2)c2ccccc2)s1 (stereo not given),17.4
CC(C)(C)c1cc(C(=O)N2CCC3(CC2)CC(O)(c2ccc(F)cc2)CO3)n[nH]1 (stereo not given),-57.9
CCCNC(=O)[C@@H]1CCCC[C@@H]1C(=O)NCCc1c[nH]c2ccccc12,3.9
Cc1ccc2cccc(NC(=O)CCS(=O)(=O)c3cccc4cccnc34)c2n1,8.1
Clc1ccc(COc2ccncc2)c(Cl)c1,66.4
O=C(Nc1cccc(N2CCC(NC3CCCc4ccccc43)CC2)c1)c1ccncc1 (stereo not given),22.1
O=C(C1CCC1)N1CC[C@H]2CN(Cc3cccc(Cl)c3)S(=O)(=O)[C@@H]2CC1,-29.6
COc1cccc(NC(=S)N2CCC(NC(=O)NC34CC5CC(CC(C5)C3)C4)CC2)c1,-50.9
CCOC(=O)Cn1cc(CN2CCCC2c2c(C)noc2CC)c2ccccc21 (stereo not given),-1.6
COc1ccc2c(c1)NC1(CCN(C(=O)Nc3ccc4c(c3)OCO4)CC1)c1cccn1-2,i
CS(=O)(=O)N1CCC2O[C@H](COCC(=O)N3CCCC3)CCC21 (stereo not given in full),3.0
COC1(c2ccccc2)CCN(C(=O)c2ccccc2C2CCNC2)CC1 (stereo not given),-1.2
COc1ccc(-c2nc3c(=O)n(C)c(=O)[nH]c3n2CCc2ccccc2)cc1,29.2
CNC[C@@H]1Oc2c(NS(=O)(=O)c3ccc(Cl)cc3)cccc2C(=O)N([C@@H](C)CO)C[C@H]1C,47.4
COC(=O)c1ccc(S(=O)(=O)N2CC(c3ccccn3)C2)n1C,-0.4
Cc1nccn1-c1ccc(CN(Cc2cccnc2)C2CC(C)(C)NC(C)(C)C2)cc1,17.9
O=C(NCc1ccccc1Cl)c1nc(Nc2ccc(F)cc2)c2ccccc2n1,-60.0
CC(C)C(=O)N1CC2CN(Cc3ccc[nH]3)CC2C1 (stereo not given),-2.3
CC(=O)c1cc2c(cc1NC(=O)c1ccco1)OCCO2,35.1
O=C(OCC1COc2ccccc2O1)c1cc(S(=O)(=O)N2CCCC2)cs1 (stereo not given),-62.4
COCCN1CCO[C@H]2CN(C(=O)c3ccsc3)C[C@@H]21,-24.0
C[C@@H]1CN([C@H](C)CO)C(=O)Cc2cc(NC(=O)CCN3CCOCC3)ccc2O[C@@H]1CN(C)Cc1ccc(C(=O)O)cc1,5.2
CS(=O)(=O)N1C[C@H]2CCC[C@]2(COCC2CCOCC2)C1,-6.1
C[C@@H]1CCCCO[C@@H](CN(C)Cc2ccc(Cl)c(Cl)c2)[C@@H](C)CN([C@@H](C)CO)C(=O)c2cc(NS(=O)(=O)c3cccs3)ccc2O1,277.8
O=C1NN=C(c2cccs2)CC1c1ccccc1 (stereo not given),-4.5

Reformatted: entries from further up.
> CC(C)C(=O)N1CC2CN(Cc3ccc[nH]3)CC2C1 (stereo not given)
  Tg IFNy HTS = -2.3
> CC(=O)c1cc2c(cc1NC(=O)c1ccco1)OCCO2
  Tg IFNy HTS = 35.1
> O=C(OCC1COc2ccccc2O1)c1cc(S(=O)(=O)N2CCCC2)cs1 (stereo not given)
  Tg IFNy HTS = -62.4
> COCCN1CCO[C@H]2CN(C(=O)c3ccsc3)C[C@@H]21
  Tg IFNy HTS = -24.0
